High-throughput results as filed in PubChem BioAssay.
Bead autofluor = flagged as autofluorescent in microsphere protease counterscreen; compound autofluorescence counterscreen, microsphere flow cytometry; active compounds read high; fluorescence intensity (test concentration not listed); actives 3.1% (n = 360,000); AID 624483;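 active = at least 3 SD above the mean of all compounds, about 16000 in these data; inconclusive = too few beads counted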;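 note: 100 nL of 1 mM stock went into each well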
Sa RN4220 lethal = kills Staphylococcus aureus RN4220; inhibition, % (concentration not given with the values); S. aureus RN4220 growth, OD600, 16 h; actives 0.33% (n = 330,000);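 active = z-score of -3 or lower and OD600 up to 0.18 on both plates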;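 note: plate controls were untreated cells for no effect and reference antibiotic for full effect; stock transfer was 100 nL into about 80 µL; one replicate is shown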
BJeLR viability = kills HRASV12-expressing BJeLR cells; AID 1554; actives 0.17% (n = 300,000); inhibition, % (test concentration not listed); BJeLR (HRASV12) viability, CellTiter-Glo ATP luminescence, 48 h; reference of the scale not given here;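 active = replicate mean above 50%; inconclusive = above 50% but judged a plate artefact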;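 note: 50 nL library stock added to about 25 µL; numbers are from one replicate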
Mtb hypoxia inh = reduces hypoxia-regulated biosensor signal in M. tuberculosis; M. tuberculosis hypoxia-regulated fluorescent reporter, fluorescence; AID 1159583; fluorescence inhibition, % (test concentration not listed); actives 0.1% (n = 300,000);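 active = 35 to 45% if threefold the growth effect, above 45% if 1.5-fold the growth effect; inactive = the rest, general growth blockers included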;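 note: wells of about 50 µL received 100 nL stock; 0% = vehicle wells and 100% = reference inhibitor wells; whole bacteria with a GFP reporter of the hypoxia response; strong numbers were not always called active; many hits fall short of the cut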
PrP UTR inh = inhibition of PrP 5' UTR reporter expression | cell-based PrP 5' UTR mRNA reporter, plate reader | inhibition, % (no concentration beside the values) | actives 0.35% (n = 340,000) | AID 488862;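 active = every replicate at 50% or more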;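 note: 0 = median of the neutral control wells; tested in H4 reporter cells; numbers are from one replicate; inactives centre near -14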
ugtP null kill = growth inhibition of S. aureus ugtP deletion strain. actives 0.54% (n = 330,000). S. aureus RN4220 ugtP deletion, OD600 growth, 16 h; some inactives read as strong as hits. growth inhibition, % (test concentration not listed);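 active = z-score under -3 and OD600 up to 0.15 on both plates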;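 note: plate controls were untreated wells for no effect and antibiotic for full effect; wells of about 80 µL received 100 nL stock; the first replicate is given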
Mtb hypoxia inh growth = recorded beside Mtb hypoxia inh, whose call it bears; growth inhibition, %; measured here: M. tuberculosis growth (absorbance);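 0% = vehicle and 100% = reference antibiotic; read after six days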
An asterisk follows results filed as active; ? = inconclusive; nt = no result given; & = joins results of further samples.

Start of the data: the first ten compounds (preview)
Each structure is followed by: Bead autofluor	Sa RN4220 lethal	ugtP null kill	Mtb hypoxia inh growth	PrP UTR inh	Mtb hypoxia inh	BJeLR viability
> COc1ccc(OCC(=O)Nc2ccc(C)cc2)cc1
→ 9469	12	-6	9	-24	3	1
> O=C(CSc1nccn1-c1ccccc1)N1CCc2ccccc21
→ 4967	3.4	-1	nt	10	nt	-11
> CCCCN1C(=O)C(=O)N(CC(=O)c2cc(C)n(C3CC3)c2C)C1=O
→ 3701	4.1	3	13	-11	25	nt
> Cn1nc(-c2ccccc2)cc1NC(=O)c1cccs1
→ 3926	3.3	-2	-1	-21	0	-1
> O=C1C2=C(CCCC2)C(=O)N1CNc1ccccc1
→ 4458	3.7	15	12	-20	9	8
> O=c1[nH]c(-c2ccccc2)nc(-c2ccccc2)c1Cl
→ 4517	4.0	3	11	-3	-1	-7
> CCOc1ccc(NC(=O)N2CCCC2C(=O)NCC2CCCO2)cc1 (stereo not drawn)
→ 2634	2.1	1	-3	-3	-3	-5
> O=C1CCc2cc(S(=O)(=O)NCCc3ccccc3)cc3c2N1CC3
→ 5761	4.7	4	-7	-11	2	5
> COc1ccccc1N1CCN(C2CC(=O)N(c3cccc(Cl)c3)C2=O)CC1 (stereo not drawn)
→ nt	-0.4	-2	18	15	-7	2
> COc1cccc(-c2noc(CCCC(=O)Nc3ccc(C(N)=O)cc3)n2)c1
→ 4478	3.9	2	4	-12	9	-1

This part in full, previewed entries included:
Each structure is followed by: Bead autofluor	Sa RN4220 lethal	ugtP null kill	Mtb hypoxia inh growth	PrP UTR inh	Mtb hypoxia inh	BJeLR viability
> COc1ccc(OCC(=O)Nc2ccc(C)cc2)cc1
→ 9469	12	-6	9	-24	3	1
> O=C(CSc1nccn1-c1ccccc1)N1CCc2ccccc21
→ 4967	3.4	-1	nt	10	nt	-11
> CCCCN1C(=O)C(=O)N(CC(=O)c2cc(C)n(C3CC3)c2C)C1=O
→ 3701	4.1	3	13	-11	25	nt
> Cn1nc(-c2ccccc2)cc1NC(=O)c1cccs1
→ 3926	3.3	-2	-1	-21	0	-1
> O=C1C2=C(CCCC2)C(=O)N1CNc1ccccc1
→ 4458	3.7	15	12	-20	9	8
> O=c1[nH]c(-c2ccccc2)nc(-c2ccccc2)c1Cl
→ 4517	4.0	3	11	-3	-1	-7
> CCOc1ccc(NC(=O)N2CCCC2C(=O)NCC2CCCO2)cc1 (stereo not drawn)
→ 2634	2.1	1	-3	-3	-3	-5
> O=C1CCc2cc(S(=O)(=O)NCCc3ccccc3)cc3c2N1CC3
→ 5761	4.7	4	-7	-11	2	5
> COc1ccccc1N1CCN(C2CC(=O)N(c3cccc(Cl)c3)C2=O)CC1 (stereo not drawn)
→ nt	-0.4	-2	18	15	-7	2
> COc1cccc(-c2noc(CCCC(=O)Nc3ccc(C(N)=O)cc3)n2)c1
→ 4478	3.9	2	4	-12	9	-1
> Cc1cccc(N2C(=O)CC(NNc3nc4ccccc4s3)C2=O)c1 (stereo not drawn)
→ 1964	2.9	0	6	-5	11	4
> O=C(OCCN1C(=O)c2ccccc2C1=O)c1cc(S(=O)(=O)N2CCOCC2)ccc1F
→ 4603	-2.1	0	12	3	11	-2
> CCOC(=O)N1CCN(C(=S)NC2CCCCC2)CC1
→ 2816	4.5	1	13	0	14	-6
> OCCOCCOc1ccc(-c2nn[nH]n2)cc1
→ 5783	3.0	5	2	-10	5	1
> N#C/C(=C/c1cn(CC(=O)O)c2ccccc12)C(=O)Nc1ccccc1
→ 3501	5.0	-1	3	-29	4	4
> CCCCC(=O)Nc1nnn(CCC)n1
→ 6662	6.1	8	-1	-19	-1	1
> O=C(Nc1ccc2ccccc2c1)C1CC1C(NP(=O)(c1ccccc1)c1ccccc1)c1ccccc1 (stereo not drawn)
→ nt	-2.6	9	1	nt	3	nt
> O=C(O)C(C1CCCCC1)C1(O)CCCC1 (stereo not drawn)
→ 3148	5.1	6	8	-12	3	nt
> COc1cc(/C=C2/C(=O)NN(c3ccccc3)C2=O)cc(Br)c1O
→ 5125	-0.7	-1	-5	-14	3	1
> CCC(OC(=O)c1cc2sccc2n1C)C(=O)NCc1ccco1 (stereo not drawn)
→ 8436	6.7	5	3	-34	10	-11
> CCOc1ccc(OCC)c(NC(=O)CN2CCN(c3cccc(C)c3C)CC2)c1
→ 10421	-0.7	-1	2	-15	-2	nt
> CCC(CC)C1C(C#N)=C(N)Oc2c1c(=O)oc1ccccc21 (stereo not drawn)
→ 3263	-4.8	-24	-13	-12	24	-3
> CC1CCN(c2nc3c(c(=O)n(C)c(=O)n3C)n2CCSc2ncccn2)CC1
→ 4669	-5.6	-7	13	1	3	8
> CC1=CC(=O)C(C(C)C)=C/C1=C(\c1cc(C(C)C)c(OP(=O)(O)O)cc1C)c1ccccc1C(=O)O
→ 3246	0.7	17	6	nt	5	3
> Cc1nnc(SCCn2c(N3CCCC(C)C3)nc3c2c(=O)[nH]c(=O)n3C)s1 (stereo not drawn)
→ 4041	1.5	-2	14	3	2	10
> COc1ccc(N(CCCN2C(=O)c3cccc4cccc(c34)C2=O)C(=O)c2cccnc2)cc1
→ 4625	1.5	-1	8	-4	-8	-5
> CCCCOP(=O)(OCCCC)C1(NS(=O)(=O)c2ccccc2)C=CC(=O)c2ccccc21 (stereo not drawn)
→ 2145	27	-15	7	6	-1	-8
> O=C(CN(C(=O)c1csnn1)c1ccccc1F)NCc1ccc2c(c1)OCO2
→ 3600	1.1	7	0	-20	-7	-1
> Cc1ccc(-n2c(=O)[nH]c3c(C(N)=O)nc(-c4ccc(C)o4)nc32)cc1
→ 3250	18	-12	8	-15	-5	2
> COc1ccc(-c2noc(Cn3cc(S(=O)(=O)N4CCCC4)ccc3=O)n2)cc1
→ ?	2.9	6	-1	-6	3	nt

A few values from the list:
For Mtb hypoxia inh, CC1CCN(c2nc3c(c(=O)n(C)c(=O)n3C)n2CCSc2ncccn2)CC1 is entered as 3
For Bead autofluor, CCC(OC(=O)c1cc2sccc2n1C)C(=O)NCc1ccco1 (stereo not drawn) is entered as 8436

Further results
Each structure is followed by: Bead autofluor	Sa RN4220 lethal	ugtP null kill	Mtb hypoxia inh growth	PrP UTR inh	Mtb hypoxia inh	BJeLR viability
> CCSC(N)=NN=Cc1cc(C)ccc1O
→ nt	11	-5	-2	nt	-3	nt
> Cc1ccc(-c2c(C(=O)N/N=C/c3sccc3C)nnn2-c2nonc2N)cc1
→ 6016	nt	nt	nt	-6	nt	-9
> Cc1cc(N2CCN(S(=O)(=O)c3ccc(Br)cc3)CC2)n2ncnc2n1
→ 3290	3.3	9	3	-12	2	-10
> CCOC(=O)n1c(=O)n(Cc2ccc(F)cc2)c2ccccc21
→ 2181	2.9	-4	5	-7	2	5
> COCCNc1nnc(SCC(=O)NNC(=O)c2ccccc2)s1
→ 3999	-0.1	1	0	4	1	-4
> COc1ccc(-c2oc(=O)c3cc(OC)c(OC)cc3c2C=Cc2ccc(OC(C)=O)cc2)cc1
→ nt	5.2	-1	0	nt	9	nt
> O=C(NC1CCCCC1)c1cnn2c(C(F)(F)F)cc(-c3ccco3)nc12
→ 11608	-1.8	38	14	-12	7	7
> CNCCCOc1cc(C)cc(C)c1C
→ 1995	3.3	1	5	-15	6	-13
> Nc1o[nH]c(=O)c1Cc1ccccc1
→ 3736	-0.6	-5	13	2	13	10
> Cc1cc(NC(=O)c2nn(C)c(C)c2Br)no1
→ 5588	-0.7	9	1	-32	14	4
> Cc1csc(NC(=O)CN2C(=O)c3ccccc3C2=O)c1C(N)=O
→ nt	4.1	7	4	nt	10	-4
> O=C(Nc1nccs1)c1ccc2ccccc2c1
→ 4229	-0.9	4	7	-81	17	5
> COC(=O)CCCCCN1C(=O)NC(c2ccc(-c3ccccc3)cc2)C(C(=O)OCc2ccccc2)=C1C (stereo not drawn)
→ nt	0.8	8	5	nt	6	-4
> CN(C)S(=O)(=O)c1c(Cl)cccc1Cl
→ 23563*	1.9	0	7	-10	8	nt
> COc1ccc(CNC(=O)C(C)OC(=O)c2cccn2C)cc1 (stereo not drawn)
→ 8737	-2.0	4	-12	-21	-4	7
> CCN1CCN(CCNC(=O)CSCc2nc(-c3ccc(OC)c(OC)c3)oc2C)CC1
→ 3863	1.8	0	12	-14	7	-1
> Cc1ccc(/C=N/N=C2/NC(=O)CS2)o1
→ 4635	nt	nt	nt	-21	nt	2
> CC(=O)O[C@]1(C(C)=O)CCC2C3CC(C)C4=CC(=O)CC[C@]4(C)C3CC[C@@]21C (stereo partly drawn)
→ nt	4.0&6.8	-4&-3	-2&-1	nt	0&-6	nt
> O=C1CCC([N+](=O)[O-])C(c2cc3c(cc2Br)OCO3)N1 (stereo not drawn)
→ 2029	1.2	2	3	-3	11	3
> CC1CCCC(C)N1CCCNC(=O)Cn1c(=O)c2cccn2c2cccnc21 (stereo not drawn)
→ 6461	2.1	3	12	-49	12	-7
> Cc1ccccc1-c1cc(-c2ccccc2O)on1
→ 8819	3.9	36	5	nt	12	6
> O=C(NCCN1C(=O)S/C(=C\c2ccc(Cl)cc2)C1=O)c1ccc(F)c(S(=O)(=O)N2CCOCC2)c1
→ 10557	10	2	-3	-17	-7	4
> CC(C)N1CCN(Cc2ccc3nsnc3c2)CC1CCO (stereo not drawn)
→ 3895	1.8	4	3	2	14	3
> O=C(CN1CCC(NC(=O)C2CC2)CC1)Nc1ccccc1[N+](=O)[O-]
→ 3420	1.6	0	6	-15	14	-9
> O=c1c2c3c(sc2nc(NCCO)n1Cc1ccco1)CCCCC3
→ 2288	9.0	1	3	-35	-4	0
> COc1ccc(NC(=O)CSc2nc3c(c(=O)n2-c2ccc(C)cc2)SCC3)c(OC)c1
→ 6745	-1.4	6	11	-19	15	-2
> NS(=O)(=O)c1ccc(NC(=O)CSc2nnc(-c3cnccn3)n2-c2ccccc2)cc1
→ 2842	-11	-4	11	-18	18	-11
> CC(=O)OC(C#CCN1CCOCC1)c1ccccc1 (stereo not drawn)
→ 9603	3.3	-2	2	-26	18	1
> COc1ccc(N2CC(C(=O)Nc3ccc([N+](=O)[O-])cc3Br)CC2=O)cc1 (stereo not drawn)
→ 3129	3.5	9	-1	-20	7	-7
> CC(OC(=O)c1cccc(-n2cnnn2)c1)C(=O)Nc1ccc(F)c(F)c1F (stereo not drawn)
→ 5882	1.5	-1	-3	-3	-9	nt
> COc1cccc(C=NNC(=O)CC(C)O)c1OC/C=C/c1ccccc1 (stereo not drawn)
→ nt	-1.2	4	8	nt	13	nt
> CC(=O)Nc1c(O)nc(SCc2ccc(Cl)cc2)[nH]c1=O
→ 7833	nt	nt	nt	-7	nt	-3
> COc1cc(C=NNC(=O)c2ccc(-c3ccccc3)cc2)cc(OC)c1OC
→ nt	27	17	10	nt	10	nt
> CCCN(C(=O)c1ccccc1N)c1c(C)n(C)n(-c2ccccc2)c1=O
→ 9976	2.4	3	-2	-20	4	-1
> Cc1ccc(-c2noc(CN(C(=O)c3cccc(Br)c3)C(C)C)n2)cc1
→ 5996	1.3	8	3	-22	-2	-13
> CCCn1c(=N)n(CC(O)COc2cccc(C)c2)c2ccccc21 (stereo not drawn)
→ ?	3.2	-15	19	-14	3	-4
> CCOC(=O)C(C)Oc1c(Br)cc(C2NC(=O)NC(C)=C2C(C)=O)cc1OCC (stereo not drawn)
→ 10854	2.9	-1	6	-22	3	-11
> CC(C(=O)N=c1sc2ccccc2n1C)N1C(=O)C2CC=CCC2C1=O (stereo not drawn)
→ 21549*	9.1	2	3	-22	-1	1
> N#C/C(=C\c1ccc(-c2ccc(Br)cc2)o1)C(=O)NCCc1c[nH]c2ccccc12
→ 2481	17	-22	1	-17	-1	nt
> Cc1cc(C)n(CC(=O)Nc2ccccc2)n1
→ 4101	2.6	8	-5	3	5	1
> COc1ccc(/C=N/NC(=O)c2cc(-c3ccccc3OC(C)C)nc3ccccc23)cc1CN1CCOCC1
→ 2105	nt	nt	nt	-20	nt	2
> CS(=O)(=O)c1ccc(Cl)c(NC(=O)COC(=O)c2cccc(S(=O)(=O)N3CCCCC3)c2)c1
→ 5941	2.9	6	7	-5	5	-3
> O=C(Cc1ccccc1)N/N=C/c1cc2c(cc1Cl)OCO2
→ 2404	nt	nt	nt	7	nt	-6
> CC(C)(C)c1ccc(NC(=O)C2=CC=CN3CCS(=O)(=O)N=C23)cc1
→ 3381	6.4	5	7	-33	10	nt
